Compound activity deposited in PubChem BioAssay by ICCB-Longwood Screening Facility, Harvard Medical School.
Bm FixLJ act: B. multivorans fixK reporter activation. B. multivorans fixK-promoter GFP reporter, 18 h; stronger effect = higher value. z-score (no concentration beside the values). 29,000 compounds, 0.3% hits;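 active means replicate mean overnight rise in green fluorescent reporter signal, 3 or more SD over negative controls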;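 further: score is relative to vehicle wells of the plate; 300 nL library stock went into each well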
* = called active by the depositor; & = joins results of further samples. Not all compounds are listed; rates above refer to the full screens.

SMILES | Bm FixLJ act
CC(CCc1ccccc1)NC(=O)Cn1ncc2c3ccccc3n(Cc3ccccc3)c2c1=O (configuration not stated) | -2.7
COc1ccc(Cl)cc1NC(=O)Cn1cnc2sc(C)c(S(=O)(=O)N3CCN(c4ccccc4OC)CC3)c2c1=O | -1.7
CCCNC(=O)C(CC)n1nc(CC)n2c(cc3oc(C)cc32)c1=O (configuration not stated) | 0.13
CCC1CCc2nc3sc(C(=O)Nc4ccc(F)cc4F)c(N)c3cc2C1 (configuration not stated) | -2.4
COc1cc(OC)cc(-c2nc3nc(C)c(CCC(=O)NCCC(C)C)c(C)n3n2)c1 | -0.45
CN(Cc1cnn(-c2ccc(F)cc2)c1)C(=O)c1cccc2c1CCC2=O | -0.04
CC1CCN(C(=O)c2cc(-c3ccc(Br)cc3)on2)CC1 | -0.9
CCc1cccc(NC(=O)CCC(=O)NCc2snnc2C(C)C)c1 | -0.59
COc1ccc(NC(=O)CCSc2nc(-c3ccco3)cc(C(F)(F)F)n2)cc1OC | -0.7
CN(C/C=C/C#CC(C)(C)C)Cc1cccc2ccccc12 | -1.6&0.49
Cc1ccc(NC(=O)CCc2nc3cccnc3n2-c2ccccc2)cc1 | -1.1
COc1c(Cl)cc(C(=O)N(Cc2ccc(C)o2)C2CCS(=O)(=O)C2)cc1Cl (configuration not stated) | -0.12
Cc1cccc(-n2c3nc(=O)n(C)c(=O)c-3cc3c(C)nn(-c4ccccc4)c32)c1C | -0.91
O=C(Cn1ncc2c3ccccc3n(Cc3ccccc3F)c2c1=O)N1CCCCC1 | -0.13
COc1ccc(-c2cc(C(F)(F)F)nc(SCCC(=O)Nc3cc(C)ccc3O)n2)cc1 | -0.6
CCOC(=O)c1c(-c2ccc(Br)cc2)csc1NC(=O)c1ccc(C(C)(C)C)cc1 | -2.3
Cc1ccccc1Cn1c(C)c(CNCCCc2ccccc2)c(C(=O)O)c1C | -1.5
Fc1ccccc1Cn1c(-c2ccccc2)nc2ccccc21 | 1.1
COc1ccc(NC(=O)CCN2CCN(CCO)CC2)c(OC)c1 | -0.06
Cn1c(=O)oc2cc(S(=O)(=O)N3CCC(C(=O)N4CCN(c5ccccc5F)CC4)CC3)ccc21 | 0.12
Cc1ccn2c(F)c(C(=O)N3CCC4(CCCN(C)C4=O)C3)nc2c1 (configuration not stated) | 0.57
Cc1nnc(CCNC(=O)c2ccc(-c3ccccc3Cl)o2)s1 | -1.9
CCN1CCN(C(=O)NC(C(=O)NC2C(=O)N3C(C(=O)O)=C(CSc4nnnn4C)CSC23)c2ccc(O)cc2)C(=O)C1=O (configuration not stated) | -8
Cc1ccc(-c2nc3sccn3c2Nc2ccc(C)c(C)c2)cc1 | 0.04
CC(=O)c1ccc(N2CCN(C(=O)Nc3ccc(C)cc3)CC2)cc1 | 2.7
Additional entries.
SMILES | Bm FixLJ act
CCCC(CCC)C(=O)N1CC(O)C(Cc2cc(C)[nH]n2)C1 (configuration not stated) | -1.7
COc1ccccc1OCCCCn1c(C2CC(=O)N(c3ccccc3Cl)C2)nc2ccccc21 (configuration not stated) | -2.7
COc1cccc(-c2nc(SCC(=O)Nc3ccc4c(c3)OCCO4)c(-c3ccccc3)[nH]2)c1 | -0.76
Cc1c(N(C)CS(=O)(=O)O)c(=O)n(-c2ccccc2)n1C | -1.2
COc1ccc(-n2nc(-c3ccc(C)cc3)c3cnc4cc(F)c(F)cc4c32)cc1 | -0.88
CCOc1cc(-c2nc(-c3ccc(-c4ccc(C)cc4)nc3OC)no2)cc(OCC)c1OCC | -1.9
O=C(CCC(=O)Nc1cccc(F)c1)NCCCn1cccn1 | -1.2
Cc1nc2cc(-c3ccccc3)nn2c(C)c1CCC(=O)NCc1cccc(Cl)c1 | -0.69
CC(C)CNC(=O)CN1CCC(N2CC(COc3ccc(F)cc3)OCC2=O)CC1 (configuration not stated) | 0.25
COc1ccc(CCNC(=O)CS(=O)Cc2nc(-c3ccc(C)cc3)oc2C)cc1OC (configuration not stated) | -1.1
Cn1c(CO)nnc1C1CCN(C(=O)CC(Cc2ccccc2)c2ccco2)CC1 (configuration not stated) | -2.7
Cn1ccnc1CN(C(=O)Cc1noc2ccccc12)C1CC1 | -0.39
CCN(CC)CCCNC(=O)CCCn1c(=O)[nH]c2ccc(Br)cc2c1=O | 0.14
Cc1nc2c3ccccc3nc(NNC(=O)CCC(=O)N3CCN(c4ccc(F)cc4)CC3)n2n1 | -1.6
O=C1CC(c2cccc(F)c2)c2c(n3ncnc3[nH]c2=O)N1 (configuration not stated) | -1.6
CCCN1C(=O)C(O)(CC(=O)c2ccc(C(C)C)cc2)c2ccccc21 (configuration not stated) | -0.06
CCOc1ccc(NC(=O)CCc2nnc3n(C)c(=O)c4sccc4n23)cc1 | 2.3
CCc1nn(CC(=O)N2CCCCC2)c(=O)c2cc3occc3n12 | -0.32
O=C(NCc1ccc(F)cc1)c1cc2n(n1)CCCN(Cc1ccc(F)cc1)C2=O | -1.1
CCOc1ccc(NC(=O)CSc2nnc3c(C)cc4ccccc4n23)cc1 | 2
Cc1cc(N)n(CC(=O)N2CCC(c3cc(CC(=O)O)[nH]n3)CC2)n1 | -0.24
C=CCCC(=O)N1CCCC2(CCC(=O)N(Cc3ccncc3)C2)C1 (configuration not stated) | -1.2
CCOC(=O)CN(C)c1ncc(-c2cc(C3CC3)nc(N)c2C#N)cn1 | -1.5
CCN(CC)C(=O)C1CCCN(C(=O)NCc2cc3cc(F)ccc3[nH]2)C1 (configuration not stated) | -0.9
CCC(=O)N1CCc2cc(S(=O)(=O)CCC(=O)N(C)c3ccc(OC)cc3)ccc21 | -0.66
(next part)
SMILES | Bm FixLJ act
CCCn1cc(S(=O)(=O)NC2CC=CCC2C(N)=O)cn1 (configuration not stated) | -2.4
CSc1ccc(CC(=O)NC2CCN(CC(N)=O)CC2)cc1 | -1.1
Cc1ccccc1C(=O)N1CCC[C@]2(C1)CN(c1ncc(F)cn1)CCC2O (some centres not stated) | 0.52
O=C(NCCc1nc2ccccc2n1Cc1ccccc1)c1ccco1 | 0.03
Cc1cccc(NC(=O)CSc2nc3c(oc4ccccc43)c(=O)n2-c2ccccc2)c1C | -0.93
Cc1cc(NC(=O)C(C)(C)Oc2ccc(Cl)cc2)cc(-c2nc3ncccc3o2)c1O | 0.68
CCN(CC)c1ccc(NC(=O)c2sc3ccccc3c2Cl)cc1 | -0.63
CCOC(=O)c1c(-c2ccccc2)oc2ccc(NS(=O)(=O)c3ccc(C)cc3C)cc12 | 0.25
O=C1CC(c2ccc(F)cc2)c2c(n3c(nc4ccccc43)[nH]c2=O)N1 (configuration not stated) | -0.2
Cc1ccc(CNC(=O)CC2Oc3ccc(Cl)cc3NC2=O)cc1 (configuration not stated) | -0.35
Cc1ccc(N(CC(=O)N2CCN(c3ccc(F)cc3)CC2)S(=O)(=O)c2c(C)noc2C)cc1 | -1
CCCN(CCC)CCCNC(=O)Cn1ncn2c(cc3sc(CC)cc32)c1=O | -0.43
O=C(Nc1ccc(O)c(-c2nc3ccccc3o2)c1)c1ccco1 | -2.7
CNC(=O)c1noc(CN2CCCC(C)(c3ccccc3)C2)n1 (configuration not stated) | -1.1
O=C(NCc1cccs1)c1ccc2c(c1)[nH]c(=O)n2C1CCC(O)CC1 (configuration not stated) | -3.5
Cc1cc(C)c(S(=O)(=O)Nc2ccc3oc(C)c(C(=O)OC(C)C)c3c2)cc1C | -1.7
Cn1c(=O)cc(SCC(=O)NCc2ccc(F)cc2)c2cc(Cl)ccc21 | -0.27
CCOc1ccc(C(=O)c2cn(CC(=O)Nc3ccc(C)c(C)c3)c3ccc(OCC)cc3c2=O)cc1 | -1.3
Cc1cc(C(=O)Nc2ccc(NC(=O)c3ccco3)c(C)c2)nc(C)n1 | -0.81
CCCC(C)N1CC2(CCN(Cc3ccc4nsnc4c3)CC2)OC1=O (configuration not stated) | 0.4
O=C(NCCc1c(F)cccc1Cl)c1cnc(Nc2ccccc2)nc1 | -2.6
CCCCCCn1nnc2sc(-c3ccccc3)cc2c1=O | 2.5
Cc1ccc(C(=O)N2CC(CO)C(CN3CCOCC3)C2)cc1Cl (configuration not stated) | -0.79
COC(=O)c1ccc(C2c3c(oc4ccc(C)cc4c3=O)C(=O)N2Cc2ccc3c(c2)OCO3)cc1 (configuration not stated) | -0.59
CCc1ccc2c(c1)c(=O)c(S(=O)(=O)c1ccccc1)cn2CC(=O)Nc1cc(C)ccc1C | -0.63
(list continues)
SMILES | Bm FixLJ act
Cc1nsnc1C(=O)NCC(c1ccccc1)N1CCCCCC1 (configuration not stated) | 0.25
CCC(CC)c1nn2c(=O)cc(COc3ccc(NC(=O)c4ccc(Cl)cc4)cc3)nc2s1 | -1.8
CCCn1nccc1C(=O)NC(CC(C)C)c1cccnc1 (configuration not stated) | 0.03
O=C(NCC1(c2ccccc2F)CCCC1)N1CCC(c2ncn[nH]2)CC1 | -0.1
CCCCn1c(CCNC(=O)c2ccc(F)cc2)nc2ccccc21 | -1.1
CC(=O)c1cc(C(=O)N2CCC(c3[nH]ncc3-c3cccc(F)c3)CC2)[nH]n1 | 1.3
COc1nc2c(cc1CNC(=O)CCCC(N)=O)C(=O)N(C1CCCC1)C2 | -0.2
CC(=O)c1ccc(NC(=O)C2CCC(CNS(=O)(=O)c3ccc(Br)s3)CC2)cc1 (configuration not stated) | -0.27
COc1ccccc1NC(=O)c1oc2ccccc2c1NC(=O)Cc1ccccc1 | -1.9
O=C(CCS(=O)(=O)c1cc(Br)cc2c1N(C(=O)C1CC1)CC2)NCc1ccc(Cl)cc1 | -0.65
COc1ccc(C(=O)NC2CC(c3nnc(Cn4cccn4)n3C)C2)c(C)c1 (configuration not stated) | -1.7
Cc1ccc(C)c(N2CCN(CCCNC(=O)c3nnc(Cc4ccc(F)cc4Cl)o3)CC2)c1 | -1
CCOc1cc(C(=O)Nc2ccc3c(c2)n(C)c(=O)c(=O)n3C)cc(OCC)c1OCC | 0.22
CCN(C1CCS(=O)(=O)C1)S(=O)(=O)c1cc(-n2cccn2)ccc1OC (configuration not stated) | -2
Cc1cccc(NC(=O)CSc2nc3ccccc3nc2N2CCC(C)CC2)c1 | -1.7
COc1ccc(OC)c2c(C)cc(NCC3CCOCC3)nc12 | -1.1
Cc1ccccc1NC(=O)Cn1c(=O)n(CCC(=O)NCc2ccc3c(c2)OCO3)c(=O)c2sccc21 | 0.23
Cc1cc(C)c(-n2cccn2)c(CN2CCC(O)(c3cccnc3)CC2)c1 | 1.1
COc1ccc(S(=O)(=O)NC2(C(F)(F)F)NC(=O)N(CCc3ccc(OC)c(OC)c3)C2=O)cc1 (configuration not stated) | 0.01
Cc1ccccc1Nc1c(-c2cc(Br)ccc2F)nc2ccccn12 | 2.5
COc1cc(C)c(C)cc1S(=O)(=O)N1CCC(C(O)c2cccs2)CC1 (configuration not stated) | 0.29
Cc1c(NC(=O)c2cc(-c3ccc(O)cc3)on2)c(=O)n(-c2ccccc2)n1C | 0.27
CCOC(=O)C1CCCN(C(=O)c2ccc3c(c2)N(Cc2ccccc2F)C(=O)c2ccccc2S3=O)C1 (configuration not stated) | -2
Cc1oc(C)c2c(=O)cc(-c3ccc4c(c3)OCO4)cc(OC(=O)c3ccccc3Br)c12 | 0.23
Cc1cccc(/C=C(\C#N)c2nc3ccccc3c(=O)[nH]2)c1 | 0.36

Given as tab-separated lines: 14 of the compounds above.
structure	Bm FixLJ act
Cc1ccc(C)c(N2CCN(CCCNC(=O)c3nnc(Cc4ccc(F)cc4Cl)o3)CC2)c1	-1
CCOc1cc(C(=O)Nc2ccc3c(c2)n(C)c(=O)c(=O)n3C)cc(OCC)c1OCC	0.22
CCN(C1CCS(=O)(=O)C1)S(=O)(=O)c1cc(-n2cccn2)ccc1OC (configuration not stated)	-2
Cc1cccc(NC(=O)CSc2nc3ccccc3nc2N2CCC(C)CC2)c1	-1.7
COc1ccc(OC)c2c(C)cc(NCC3CCOCC3)nc12	-1.1
Cc1ccccc1NC(=O)Cn1c(=O)n(CCC(=O)NCc2ccc3c(c2)OCO3)c(=O)c2sccc21	0.23
Cc1cc(C)c(-n2cccn2)c(CN2CCC(O)(c3cccnc3)CC2)c1	1.1
COc1ccc(S(=O)(=O)NC2(C(F)(F)F)NC(=O)N(CCc3ccc(OC)c(OC)c3)C2=O)cc1 (configuration not stated)	0.01
Cc1ccccc1Nc1c(-c2cc(Br)ccc2F)nc2ccccn12	2.5
COc1cc(C)c(C)cc1S(=O)(=O)N1CCC(C(O)c2cccs2)CC1 (configuration not stated)	0.29
Cc1c(NC(=O)c2cc(-c3ccc(O)cc3)on2)c(=O)n(-c2ccccc2)n1C	0.27
CCOC(=O)C1CCCN(C(=O)c2ccc3c(c2)N(Cc2ccccc2F)C(=O)c2ccccc2S3=O)C1 (configuration not stated)	-2
Cc1oc(C)c2c(=O)cc(-c3ccc4c(c3)OCO4)cc(OC(=O)c3ccccc3Br)c12	0.23
Cc1cccc(/C=C(\C#N)c2nc3ccccc3c(=O)[nH]2)c1	0.36

Next part:
SMILES | Bm FixLJ act
CN1C[C@H](C(=O)N[C@]2(C)O[C@@]3(O)[C@@H]4CCCN4C(=O)[C@H](Cc4ccccc4)N3C2=O)C=C2c3cccc4[nH]cc(c34)C[C@H]21 | -0.92
O=C(CN1CCOC1=O)NCCc1csc(-c2cccnc2)n1 | -1.3
CCOc1cc(C(=O)N(Cc2nc(-c3ccc(C)cc3)no2)C(C)C)cc(OCC)c1OCC | -1.9
Cc1nc(CC(=O)NCCCc2nc3ccc(Cl)cc3[nH]2)cs1 | 0.18
COC(=O)c1cc(NC(=O)c2ccc(-c3ccc(Cl)cc3Cl)o2)cc(C(=O)OC)c1 | 0.14
Cc1ccc(CSc2ncc(Cl)c(C(=O)Oc3ccc(F)cc3)n2)cc1 | 1.1
Cc1noc(CC2CCN(c3ncnc4c3Cc3ccccc3OC4)CC2)n1 | 0.6
COc1ccc2c(C)c(CCC(=O)NCc3ccccc3OC)c(=O)oc2c1 | -2.5
CN(C)CCOC(c1ccc(Cl)cc1)c1ccccn1 (configuration not stated) | -1.6
CCN(CC)CCSc1nnc2c3cc(F)ccc3n(C)c2n1 | -1.9
Cc1ccccc1OCCC(=O)NCC1COCCN(C)C1 (configuration not stated) | -0.65
COc1ccc(NC(=O)CSc2nc(O)c(C/C=C/c3ccccc3)c(=O)[nH]2)cc1 | -1.1
CC(C)(O/N=C(\C(=O)N[C@@H]1C(=O)N2C(C(=O)[O-])=C(C[n+]3ccccc3)CSC12)c1csc(N)n1)C(=O)O (some centres not stated) | -5.1
